Assay outcomes from PubChem BioAssay.
Mito fusion act: inhibitors of mitochondrial division or activators of mitochondrial fusion. S. cerevisiae fusion-defective mutant growth rescue, CellTiterGlo 48 h. Potency, µM (top dose mostly 46.1 µM), for inactives: top-dose growth rescue (activation), usual class: activators. 320,000 compounds, 0.23% hits. AID 485298;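 also: potency is read from the fitted curve at half-maximal effect; % of control where 0% means no effect; nearly all actives have a fitted effect of over 45% in size; temperature-sensitive fusion mutants such as fzo1-1 at 37 °C on non-fermentable ethanol glycerol medium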
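Yeast fusion mutant, YPEG (non-fermentable carbon), compound, 48 h at 37C non-permissive; CellTiterGlo added, 10 min RT, luminescence read. Rescued growth = division inhibition.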
ASM inhibitor: human S-ASM enzyme inhibition; AID 504937; placental ASM, HMU-PC fluorogenic substrate, 60 min; Potency, µM (doses to about 57.5 µM), inactives show at the top dose activity change, negative = inhibition, actives largely listed as inhibitors; P17405; 340,000 compounds, 0.006% hits; also: potency is read from the fitted curve at half-maximal effect
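Human placenta-derived ASM preincubated with compound 10 min at room temperature, then reacted with 9 uM (final) fluorogenic HMU-PC substrate for 60 min at 37 C. Stop solution raises pH to 10; fluorescence read at Ex 386/Em 447 nm.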
a7 integrin act: activators of alpha7 integrin expression for muscular dystrophy. Potency, µM (highest dose often 38.3 µM), without a hit: at the top dose activation, usual class: activators. 350,000 compounds, 0.064% hits. AID 624291. alpha7betagal myoblasts, beta-gal FDG fluorescence, 48 h;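 also: potency is read from the fitted curve at half-maximal effect; 100% = response of the positive control SU9516; nearly all actives have a fitted effect of over 60% in size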
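alpha7betagal+/- myoblasts (passage 13, 250/well) treated 48 h at 37C with compounds at 1:260 dilution of DMSO stock. Lysed, then beta-galactosidase activity read as FDG fluorescence (ex 480/em 540) after 30 min, with pre-read for autofluorescence.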
CXXC DNA block: inhibitors of human MLL CXXC domain-DNA interaction | 290,000 compounds, 0.037% hits | Potency, µM (series often up to 115 µM), for the others: at the top dose activity change, negative = inhibition, hits mostly inhibitors | MLL-CXXC / FITC-HOXA9 DNA fluorescence polarization | Q03164; active = well fitted inhibition curve with a large enough effect in the polarisation, with a control signal flat, not every such curve was filed as active; inconclusive = small, poorly fitted or top-dose-only effect, or effect the other way, or a change in a side signal; inactive = no such curve, though single readings can be large or run the other way; the % refers to the polarisation; also: potency is read from the fitted curve at half-maximal effect
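Steps: dispense CXXC domain solution (7 uM) → pin compounds or unlabeled HOX-A9 DNA control → 5 min ambient → add FLSN-HOX-A9 solution (50 nM) → spin → 30 min ambient → fluorescence polarization. Tris pH 7.5/NaCl/DTT/BSA buffer.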
A-T KAP1 phos: candidate therapy for ataxia-telangiectasia; 320,000 compounds, 0.19% hits; AID 485349; Potency, µM (series often up to 57.5 µM), for the others: at the top dose activation, usual class: activators; […] A-T fibroblasts, KAP-1 phosphorylation AlphaLISA; neocarzinostatin DNA damage 30 min before lysis; also: potency is read from the fitted curve at half-maximal effect; % of control where 0% means no effect; nearly all actives have a fitted effect of over 45% in size
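ATM-like activity read as KAP-1 phosphorylation via AlphaLISA donor/acceptor antibody pairs after lysis and 6 hr at 25C. Cells were ATM-null patient fibroblasts ([…], hTERT), dosed 60 min, then exposed to the DSB inducer NCS for 30 min.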
PTAP TSG101 blk: blocks PTAP/TSG101 interaction to inhibit HIV-1 budding; Q99816; Fluorescence polarization, FITC-PTAP peptide / Tsg101 binding; Potency, µM (titrated, usually from 115 µM), inactives show at the top dose activity change, negative = inhibition, most hits filed as inhibitors; 340,000 tested, under 10 active; AID 493005; active = well fitted inhibition curve with a large enough effect in the main read-out, with a control signal flat, not every such curve was filed as active; inconclusive = small, poorly fitted or top-dose-only effect, or effect the other way, or a change in a side signal; inactive = no such curve, though single readings can be large or run the other way; also: potency is read from the fitted curve at half-maximal effect; % of control where 0% means no effect
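Tsg101 binding domain (10 uM final) was mixed with compound and a FITC-labeled PTAP peptide (50 nM final) in HEPES pH 7.5 buffer with NaCl, Tween 20, EDTA and TCEP; fluorescence polarization was read after 20 min at r.t.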
TCR activator: activates T cell receptor signaling | primary human leukocytes, anti-CD3, IL-2 HTRF, 48 h | Potency, µM (highest dose often 9.22 µM), inactives show at the highest dose activation of IL-2 secretion, most hits filed as activators | 330,000 tested, under 10 active | AID 504894; also: % of control where 0% means no effect
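Human primary leukocytes + a-CD3 beads + cpd, 48 hr; IL-2 in supernatant by HTRF (ex 320nm / em 665nm). No co-stimulatory signal supplied.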
MBNL1 CUG block: blocks human MBNL1 binding to CUG repeat RNA | TR-FRET MBNL1-His/biotin-(CUG)12 binding, 665/545 ratio | 280,000 compounds, 0.036% hits | Potency, µM (doses to about 57.5 µM), inactives show top-dose activity change, negative = inhibition, actives largely listed as inhibitors | Q9NR56; active = well fitted inhibition curve with a large enough effect in the signal ratio, with a control signal flat, not every such curve was filed as active; inconclusive = small, poorly fitted or top-dose-only effect, or effect the other way, or a change in a side signal; inactive = no such curve, though single readings can be large or run the other way; the % refers to the signal ratio; also: potency is read from the fitted curve at half-maximal effect; % is scaled to controls: 0 for no effect and ±100 for the full control effect
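His-tagged MBNL1 binding to biotinylated (CUG)12 RNA was measured by TR-FRET using terbium anti-His antibody (0.055 ng/ul final) and streptavidin-XL665 (5 nM final). Compounds were titrated 92 nM to 58 uM; 60 min at room temperature.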
TSHR antagonist: human thyrotropin receptor antagonism. P16473. TSHR-expressing cells, TSH-stimulated cAMP HTRF, 2 h; hits give low values. activity change, negative = inhibition, % at 11.5 µM. 330,000 compounds, 0.2% hits;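 active = activity change below a set negative limit, meaning inhibition stronger than a set level, cut at about -70% in these data; inconclusive = activity change between two set negative limits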; also: % is scaled to controls: 0 for no effect and ±100 for the full control effect
Target sequence (P16473 whole entry, looked up): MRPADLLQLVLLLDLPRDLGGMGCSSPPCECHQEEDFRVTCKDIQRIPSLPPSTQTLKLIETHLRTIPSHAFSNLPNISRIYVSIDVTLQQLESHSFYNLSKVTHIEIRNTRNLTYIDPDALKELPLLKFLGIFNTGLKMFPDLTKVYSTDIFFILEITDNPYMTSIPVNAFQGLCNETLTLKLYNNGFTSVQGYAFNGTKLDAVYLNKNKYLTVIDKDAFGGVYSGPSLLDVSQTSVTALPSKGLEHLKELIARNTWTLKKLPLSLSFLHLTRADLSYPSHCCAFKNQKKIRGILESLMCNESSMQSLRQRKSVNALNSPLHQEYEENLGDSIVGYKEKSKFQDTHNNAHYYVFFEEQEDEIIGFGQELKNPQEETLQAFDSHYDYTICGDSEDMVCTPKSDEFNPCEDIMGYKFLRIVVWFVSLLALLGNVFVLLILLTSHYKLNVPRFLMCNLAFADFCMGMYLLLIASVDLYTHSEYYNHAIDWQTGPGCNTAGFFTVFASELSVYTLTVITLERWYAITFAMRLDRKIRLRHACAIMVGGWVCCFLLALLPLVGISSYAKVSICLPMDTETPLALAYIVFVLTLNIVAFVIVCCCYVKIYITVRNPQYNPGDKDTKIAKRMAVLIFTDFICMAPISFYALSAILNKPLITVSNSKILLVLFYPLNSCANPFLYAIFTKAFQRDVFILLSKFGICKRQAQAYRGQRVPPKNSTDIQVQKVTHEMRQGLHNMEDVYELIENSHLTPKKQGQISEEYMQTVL
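Inhibition of cAMP made by TSHR-expressing cells under TSH stimulation (4nM final, EC80; 2 h, 37 deg C) is quantified with a one-step lysis HTRF kit, anti-cAMP cryptate versus cAMP-d2.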
The depositor's hits bear a star; u = inconclusive; x = not tested or not shown; [ ] = another dose, or the depositor's remark. Unless noted, calls follow the shape of the dose curve; as a rule, active = well fitted curve in the direction sought with a large enough effect; inconclusive = small, poorly fitted or top-dose-only effect, or another doubt; inactive = no such curve, though single readings can be large; an effect the other way counts as inactive or inconclusive. These rows are one share of the data; rates above refer to the full screens.

SMILES	Mito fusion act	ASM inhibitor	a7 integrin act	CXXC DNA block	A-T KAP1 phos	PTAP TSG101 blk	TCR activator	MBNL1 CUG block	TSHR antagonist
CCC(C)NS(=O)(=O)c1ccc(OCC(=O)Nc2ccc3c(c2)OCO3)cc1 (stereo unspecified)	0%	0%	-12%	0%	x	-5%	-1%	-3%	x
O=C(Nc1ccc([N+](=O)[O-])c(NC(=O)C2CCCO2)c1)C1CCCO1 (stereo unspecified)	0%	0%	17%	9%	2%	5%	6%[46.1 µM]	x	2
CCn1c(CCNC(=O)c2ccc(OC)cc2)nnc1SCc1ccc(Cl)cc1Cl	9%	-1%	-15%	0%	4%	-2%	1%[46.1 µM]	x	9
Nc1c(C(=O)NCc2ccco2)nnn1CC(=O)Nc1ccc2c(c1)OCO2	4%	1%	7%	3%	-3%	-4%	1%	-3%	8
CN(CCCn1c(=S)[nH]c2ncccc2c1=O)Cc1ccccc1	-4%	-3%	-7%	14%	4%	-1%	5%	-7%	-2
COc1ccccc1CN1CC(C(=O)NCc2cccnc2)CC1=O (stereo unspecified)	-4%	-1%	3%	-4%	-4%	-5%	2%	-3%	4
Cc1ccc(CNC(=O)Cn2cnc(S(=O)(=O)N3CCC(C)CC3)c2)o1	3%	-4%	5%	-3%	1%	1%	-1%	13%	9
COc1ccc(CCNC(=O)CCC(=O)Nc2nnc(C(C)C)s2)cc1OC	-6%	6%	-14%	2%	2%	0%	14%[46.1 µM]	x	-8
COCCNC(=O)c1ccc2c(c1)CCN2S(C)(=O)=O	-4%	3%	1%	5%	-2%	-5%	4%	0%	7
Cn1nccc1C(=O)NC(=S)Nc1sc2c(c1C#N)CCCCC2	3%	1%	6%	5%	-5%	-4%	0%	3%	-6
COc1ccc(C(CCNCc2ccc(F)cc2)c2ccc(F)cc2)cc1 (stereo unspecified)	-20%	-1%	-50%[inhibitor]	-2%	1%	-4%	1%[46.1 µM]	x	6
O=c1c2ccccc2nc(-c2ccccc2)n1Cc1ccccc1	u	2%	-10%	0%	8%	-1%	3%[46.1 µM]	0%	-12
Cc1ccc(CNc2nc3ccc(C)cc3n3cnnc23)cc1	2%	-4%	8%	21%	0%	1%	13%	120%[activator]	23
CCn1c(CCNC(=O)c2ccc(C)cc2)nnc1SCc1ccc(Cl)c(Cl)c1	4%	-4%	7%	u	-6%	0%	-4%[46.1 µM]	x	0
CCCCOC(=O)CCc1nc2ccccc2[nH]c1=O	2%	4%	-1%	6%	-4%	-2%	0%	5%	-2
O=c1cc(-c2ccccc2)nc2n1Cc1ccccc1-2	8%	-1%	-6%	-2%	1%	-11%	x	u	27
COc1cccc(CN(C)CC(=O)Nc2sc3c(c2C#N)CCC3)c1OC	21%	4%	-2%	-4%	0%	-1%	-4%	5%	-5
Cc1cccc(C)c1NC(=O)c1ccc2c(c1)CCN2S(C)(=O)=O	2%	-1%	2%	7%	0%	-1%	2%	4%	-1
Clc1ccc(Cl)c(-c2nn3c(COc4ccccc4)nnc3s2)c1	-2%	-3%	-23%	6%	-2%	-3%	0%	2%	-1
Cc1ccc(OCC(=O)Nc2sc3c(c2C#N)CCC3)cc1C	-4%	0%	-10%	8%	2%	-6%	1%	0%	3
CCn1c2ccccc2c2cc(NC(=O)COC(=O)c3ccccc3O)ccc21	14%	-2%	-4%	-4%	-1%	0%	3%	0%	-10
COc1cc2c(cc1OC)CN(C(=O)c1cccs1)CC2	4%	-3%	17%	-8%	6%	-1%	4%	-9%	1
Cc1ccc(NC(=O)Cn2nnc(C(=O)NCc3ccc4c(c3)OCO4)c2N)cc1	-13%	-5%	-16%	14%	-1%	-6%	2%	-10%	14
CC(C)CCNc1nc(N)c([N+](=O)[O-])c(NC2CCCCC2)n1	5%	-1%	9%	6%	-1%	-4%	-7%	0%	5
Cc1ccccc1OCC(=O)Nc1ccc([N+](=O)[O-])cc1	2%	5%	6%	2%	-4%	1%	x	5%	-11
CCCC1Cc2c(sc(NC(=S)NC(=O)c3ccccc3)c2C#N)CO1 (stereo unspecified)	0%	x	x	-1%	-5%	x	1%[46.1 µM]	u	-11
CSCc1ccc(C(=O)NCc2ccc(C)cc2)cc1	-6%	2%	2%	6%	-7%	0%	-2%[46.1 µM]	-15%	13
CN(C)CCSc1nc(-c2ccccc2)nc2c1COC(C)(C)C2	1%	7%	-5%[7.66 µM]	-1%	-2%	-10%	10%	0%	-6
Clc1ccccc1-c1nn2c(COc3ccccc3)nnc2s1	u	-2%	3%[7.66 µM]	4%	x	-7%	x	-1%	-6
COc1cc(/C=C/C(=O)OCC(=O)N2CCN(S(=O)(=O)c3ccc(C)cc3C)CC2)ccc1O	1%	20%	-28%	10%	8%	-4%	4%[46.1 µM]	x	1
CCN(CC)C(=O)Cn1c(=O)n(-c2ccc(CC(=O)NCc3ccccc3)cc2)c(=O)c2sccc21	-1%[9.22 µM]	4%	7%	6%	3%	0%	-2%	-7%	7
Cc1ccc(NC(=S)NC(=O)c2ccc(F)cc2)cc1S(=O)(=O)Nc1ccccc1Cl	u	-7%	-26%	1%	3%	-2%	-6%[46.1 µM]	-5%	-49
Nc1nc(NCCOCCO)nc(N2CCCCCC2)c1[N+](=O)[O-]	5%	-1%	-7%	-3%	1%	-5%	-2%	0%	5
Cc1ccc(-n2c(=O)c3sccc3n(CC(=O)NCc3ccco3)c2=O)cc1	1%	2%	-10%[7.66 µM]	-4%	-5%	-3%	-2%	-6%	7
COc1ccc(OCCSc2nnc(CCNC(=O)c3ccc(Cl)c(Cl)c3)n2C)cc1	1%	-15%	-2%	1%	-5%	-8%	-4%	0%	2
COc1ccccc1NC(=O)CCCn1c(=S)[nH]c2ccccc2c1=O	3%	6%	4%	8%	0%	1%	-9%	7%	-10
O=[N+]([O-])c1ccc(/C=N/Nc2nc3ccccc3o2)cc1	-2%	-1%	-3%	10%	3%	-10%	-1%	9%	-2
CC(C)C1Cc2c(sc(NC(=S)NC(=O)c3ccccc3)c2C#N)CO1 (stereo unspecified)	0%	-1%	-8%	21%	-1%	0%	-7%[46.1 µM]	1%	0
Cc1ccc2cc(C(c3nnnn3Cc3ccccc3)N3CCc4ccccc43)c(=O)[nH]c2c1C (stereo unspecified)	0%	-2%	-23%	31%[activator]	3%	-9%	1%	u	-5
CCn1c(SCC(=O)N(C)C2CCS(=O)(=O)C2)nnc1-c1cccs1 (stereo unspecified)	7%	4%	-10%	4%	-2%	-5%	0%	-11%	-3
CCCCOC(=O)c1cc(Cl)c(O)c(OC)c1	18%	-6%	10%	-1%	-10%	1%	-4%	3%	-10
Cc1ccc(C)c(Nc2nc3ccc(C)cc3n3cnnc23)c1	19%	-3%	u	0%	-10%	2%	-32%	-10%	9
CCN(C(=O)CSc1nnc(-c2ccncc2)n1C)C1CCS(=O)(=O)C1 (stereo unspecified)	-1%	2%	7%	-7%	x	-7%	-5%	-10%	x
COc1cc2c(cc1OC)CN(C(=O)c1ccco1)CC2	-3%	1%	29%	-4%	1%	-4%	7%	x	-5
COc1ccc(C(=O)Nc2ccccc2C(=O)Nc2cccnc2)cc1	3%	-13%	u	6%	-2%	-3%	-2%	-6%	5
Cn1c(=O)c2c(nc(-c3ccccc3)n2C)n(Cc2ccccc2)c1=O	3%	-1%	-5%	-4%	-10%	1%	-8%[46.1 µM]	0%	7
Cc1c(C(=O)Nc2ccc3c(c2)OCO3)sc2ncn(CC(=O)N3CC(C)CC(C)C3)c(=O)c12 (stereo unspecified)	0%	0%	-12%	-14%	x	0%	1%	0%	4
O=C(NCCCCNC(=O)c1ccc(Br)cc1)c1ccc(Br)cc1	-35%[inhibitor]	5%	-4%	-14%	-6%	-6%	-4%	-3%	0
COc1ccccc1NC(=O)C1=C(C)Nc2nnnn2C1c1cccc(C)c1 (stereo unspecified)	-6%	34%[activator]	9%	8%	7%	-2%	-16%	2%	-5
Cn1c(C2CC(=O)N(Cc3ccccc3)C2)nc2ccccc21 (stereo unspecified)	0%	3%	0%	-2%	4%	-1%	7%	6%	2

Compound profiles, as listed above. Order of screens: Mito fusion act | ASM inhibitor | a7 integrin act | CXXC DNA block | A-T KAP1 phos | PTAP TSG101 blk | TCR activator | MBNL1 CUG block | TSHR antagonist
Listed for `CCN(C(=O)CSc1nnc(-c2ccncc2)n1C)C1CCS(=O)(=O)C1` (stereo unspecified) → -1% | 2% | 7% | -7% | x | -7% | -5% | -10% | x
Listed for `CCN(CC)C(=O)Cn1c(=O)n(-c2ccc(CC(=O)NCc3ccccc3)cc2)c(=O)c2sccc21` → -1%[9.22 µM] | 4% | 7% | 6% | 3% | 0% | -2% | -7% | 7
Listed for `COc1ccc(C(=O)Nc2ccccc2C(=O)Nc2cccnc2)cc1` → 3% | -13% | u | 6% | -2% | -3% | -2% | -6% | 5
